Screens from PubChem BioAssay.
SARS PLpro yeast: blocks SARS-CoV papain-like protease in a yeast assay. S. cerevisiae expressing SARS-CoV PLpro, growth rescue; control for the full effect not named in the record. Potency, µM (top dose mostly 32.9 µM), for inactives: at the highest dose activity, positive = growth rescue. hit rate 0.19% among 330,000; active means well fitted rising curve with a large enough effect; inconclusive means small, poorly fitted or top-dose-only effect; inactive means no such curve, though single readings can be large or run the other way; note: 0% is about no effect; nearly all actives have a fitted effect of over 55% in size; growth read by luminescence after 48 h
Cruzain inh noDet: inhibitors of Trypanosoma cruzi cruzain without detergent; AID 1476; Potency, µM, without a hit: max response, negative = inhibition, hits mostly inhibitors; hit rate 2.3% among 200,000; purified cruzain, Z-FR-AMC fluorescence, no detergent; P25779;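 note: plate controls were enzyme without inhibitor for no effect and buffer without enzyme for full effect; nearly all actives have a fitted effect of over 40% in size; top concentration of the series not given in the record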
Target sequence (P25779 123-467 limits assumed): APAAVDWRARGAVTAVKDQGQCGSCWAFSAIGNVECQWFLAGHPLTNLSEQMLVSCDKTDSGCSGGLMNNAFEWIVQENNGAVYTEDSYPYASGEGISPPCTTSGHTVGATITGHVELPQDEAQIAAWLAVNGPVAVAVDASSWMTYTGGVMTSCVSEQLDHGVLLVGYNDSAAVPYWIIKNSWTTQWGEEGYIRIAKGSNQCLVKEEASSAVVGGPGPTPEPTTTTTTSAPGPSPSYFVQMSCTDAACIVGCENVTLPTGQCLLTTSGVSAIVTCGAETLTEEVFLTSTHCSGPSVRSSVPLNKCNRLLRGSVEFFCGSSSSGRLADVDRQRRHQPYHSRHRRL
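Purified cruzain at 1.5 nM, pre-incubated 15 min with compound at room temperature in 100 mM sodium acetate pH 5.5, 5 mM DTT, 0.00005% Triton X-100. Reaction started with 2 uM Z-FR-AMC; AMC fluorescence increase over 60 s gives rate.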
NS1 function inh: influenza NS1 inhibition; S. cerevisiae slowed by influenza A NS1, growth recovery by OD600; Potency, µM (series often up to 46.1 µM), for inactives: top-dose activity, positive = more growth; hit rate 0.4% among 270,000; active means well fitted rising curve with a large enough effect; inconclusive means small, poorly fitted or top-dose-only effect; inactive means no such curve, though single readings can be large or run the other way; note: nearly all actives have a fitted effect of over 50% in size
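S. cerevisiae expressing influenza A NS1, grown in glucose, washed, then diluted 1:100 into pH 6.0 -URA galactose medium with 23 nl compound. Growth recovery read as OD600; NS1-free strain serves as control.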
RE007 growth inh: less growth of the S. pombe RE007 Vpr strain. S. pombe RE007 Vpr strain, BacTiter-Glo ATP luminescence, 24 h; control for the full effect not named in the record. Potency, µM (doses to about 92.2 µM), for inactives: at the top dose activity change, negative = less growth. hit rate 0.21% among 360,000; active = well fitted falling curve with a large enough effect; inconclusive = small, poorly fitted or top-dose-only effect; inactive = no such curve, though single readings can be large or run the other way;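 note: % is set by controls: 0 for no effect and ±100 for the full control effect; nearly all actives have a fitted effect of over 50% in size; the assay follows cell death caused by Vpr and the record does not say whether a fall means rescue or toxicity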
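Fission yeast RE007 carrying one integrated HIV-1 vpr copy, seeded at OD 0.01 in PMG+AL medium with 23 nL pinned compound. Grown 24 h at 30 degrees; viability read by BacTiter-Glo luminescence after 5 min.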
Lassa entry inh: Lassa virus entry inhibition | hit rate 1.2% among 300,000 | AID 540256 | Potency, µM (series often up to 37.9 µM), for inactives: at the top dose activity change, negative = inhibition, most hits filed as inhibitors | Lassa virus pseudotype entry inhibition, cell reporter; control for the full effect not named in the record; active means well fitted inhibition curve with a large enough effect; inconclusive means small, poorly fitted or top-dose-only effect, or effect the other way; inactive means flat fitted curve, though single readings scatter; tested in HEK293 cells; note: % is set by controls: 0 for no effect and ±100 for the full control effect; nearly all actives have a fitted effect of over 50% in size; luciferase read-out
MARV entry inh: inhibitors of Marburg virus binding or cell entry | Marburg virus pseudotyped entry inhibition, cell reporter; control for the full effect not named in the record; about a third of the inactives were read at about 46 µM | Potency, µM (titrated, usually from 37.8 µM), without a hit: top-dose activity change, negative = inhibition, hits mostly inhibitors | hit rate 1.8% among 300,000 | AID 540276; active = well fitted inhibition curve with a large enough effect; inconclusive = small, poorly fitted or top-dose-only effect, or effect the other way; inactive = flat fitted curve, though single readings scatter; tested in HEK293 cells; about a fifth of its hits are not listed in these tables; note: % is set by controls: 0 for no effect and ±100 for the full control effect; luciferase read-out
Cruzain Triton: inhibitors of Trypanosoma cruzi cruzain with detergent; Potency, µM, inactives show max response, negative = inhibition, actives largely listed as inhibitors; P25779; purified cruzain, Z-FR-AMC fluorescence, 0.01% Triton; hit rate 0.43% among 200,000; AID 1478;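 note: plate controls were neutral wells for no effect and buffer without enzyme for full effect; nearly all actives have a fitted effect of over 40% in size; top concentration of the series not given in the record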
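Purified cruzain (1.5 nM final) was preincubated with compounds for 15 min at room temperature in 100 mM sodium acetate pH 5.5, 5 mM DTT, 0.01% Triton X-100. Reaction started with 2 uM Z-FR-AMC; AMC fluorescence change over 60 s gave activity.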
2A StopGo: FMDV 2A StopGo reporter, luciferase signal; AID 1159524; Potency, µM (doses to about 57.9 µM), without a hit: top-dose signal change, negative = less light; human cells with a luciferase reporter of 2A StopGo recoding; control for the full effect not named in the record; hit rate 1.2% among 410,000; active = well fitted falling curve with a large enough effect; inconclusive = small, poorly fitted or top-dose-only effect; inactive = no such curve, though single readings can be large or run the other way; tested in HEK293T cells; note: % is set by controls: 0 for no effect and ±100 for the full control effect; nearly all actives have a fitted effect of over 45% in size; luciferase light after 4 h
* = called active by the depositor; ? = inconclusive; / = not tested or not shown; & = joins results of further samples; [ ] = another dose, or the depositor's remark. Unless noted, calls come from the whole dose curve; as a rule, active = well fitted curve in the direction sought with a large enough effect; inconclusive = small, poorly fitted or top-dose-only effect, or another doubt; inactive = no such curve, though single readings can be large; an effect the other way counts as inactive or inconclusive. Potency is the fitted concentration of half-maximal effect. Not a hit list; any-hit rate near 4.6%.

Structure | SARS PLpro yeast | Cruzain inh noDet | NS1 function inh | RE007 growth inh | Lassa entry inh | MARV entry inh | Cruzain Triton | 2A StopGo
COCCNC(=O)C(c1ccncc1)N(C(=O)Cn1nnc2ccccc21)c1ccc(OC)cc1 (stereo not drawn) | 1% | 4% | -5% | 4% | -14% | 3%&1% | -0.9% | 4%
CCCCCn1c(CNC(=O)c2ccc(F)cc2)nc2ccccc21 | / | 16% | / | / | ? | ? | -18% | 10%
O=C1C=C(c2ccccc2)CC(/C=C/c2ccccc2)C1 (stereo not drawn) | -15% | -13% | -23% | -10% | -4% | 5% | -6.5% | -12%
COc1ccc(-c2nc(C(N)=O)c3[nH]c(=O)n(-c4cccc(C)c4)c3n2)c(OC)c1 | -8% | ? | -131% | 6% | / | / | -7.3% | -1%
COc1ccc(CCNC(=O)CCCn2c(=O)c3ccccc3n(CC(=O)Nc3c(C)cc(C)cc3C)c2=O)cc1OC | / | 15% | / | / | 17%[46.1 µM] | -8%[46.1 µM] | -0.4% | -14%
Cc1ccc(-c2nc3cccnc3s2)cc1NS(C)(=O)=O | 0% | / | 2% | 14% | / | / | / | 51%[activator]
CC(=O)NC(CCS(C)(=O)=O)C(=O)Nc1cccc(Cl)c1Cl (stereo not drawn) | 5% | -8% | -2% | -7% | / | / | -3.0% | -11%
Fc1ccccc1N1CCN(C2CCN(Cc3c[nH]c4ccccc34)CC2)CC1 | 9% | 6% | 25µM* | 1% | ? | 9.2µM* | 6.8% | /
C(=C\c1ccccc1)/CSc1ccccn1 | -5% | / | / | 3% | 6% | ? | / | 24%
COc1ccc(S(=O)(=O)N2CCCN(C)CC2)cc1 | 3% | / | 0% | 21% | -15%[46.1 µM] | 0%[46.1 µM] | / | -4%
CSc1ccccc1OCc1cc(C(=O)N(C)Cc2ccc3nsnc3c2)no1 | -2% | / | -8% | -11% | -29% | 3% | / | 7%
Cc1sc2ncnc(OCC(=O)N3CCN(S(=O)(=O)c4ccccc4)CC3)c2c1C | 5% | 9% | -6% | -3% | 3% | -1% | -2.5% | -15%
Cc1ccc(S(=O)(=O)c2nc(S(C)(=O)=O)sc2N2CC(C)OC(C)C2)cc1 (stereo not drawn) | -2% | / | 9% | 10% | -15% | -8% | / | 13%
CC(c1nnc(Sc2nnnn2-c2ccccc2)n1-c1ccc(F)cc1)N(C)C (stereo not drawn) | 1% | 7% | -4% | 0% | 5% | 5% | 1.5% | -28%
O=C(CC1CS(=O)(=O)CC1CC(=O)Oc1ccccc1F)Oc1ccccc1F (stereo not drawn) | 15% | -6% | -34% | -6% | -14% | ? | -9.1% | -23%

2 entries from above, with each value named.
CCCCCn1c(CNC(=O)c2ccc(F)cc2)nc2ccccc21
  SARS PLpro yeast: /; Cruzain inh noDet: 16%; NS1 function inh: /; RE007 growth inh: /; Lassa entry inh: ?; MARV entry inh: ?; Cruzain Triton: -18%; 2A StopGo: 10%
O=C1C=C(c2ccccc2)CC(/C=C/c2ccccc2)C1 (stereo not drawn)
  SARS PLpro yeast: -15%; Cruzain inh noDet: -13%; NS1 function inh: -23%; RE007 growth inh: -10%; Lassa entry inh: -4%; MARV entry inh: 5%; Cruzain Triton: -6.5%; 2A StopGo: -12%

Going on with the list.
Structure | SARS PLpro yeast | Cruzain inh noDet | NS1 function inh | RE007 growth inh | Lassa entry inh | MARV entry inh | Cruzain Triton | 2A StopGo
CN(C)S(=O)(=O)c1ccc(-c2csc(-c3cccnc3)n2)cc1 | -1% | / | -6% | -6% | 16% | -2%[46.1 µM] | / | 0%
O=c1c2cc(Cl)ccc2[nH]c(=S)n1Cc1ccccn1 | 29% | -3% | -3% | -4% | 5% | 12% | -7.1% | 22%
CCCCc1nn2c(=O)cc(COC(=O)c3ccc(NC(=O)c4ccccc4C)cc3)nc2s1 | / | 15% | / | / | 6%[46.1 µM] | / | -1.3% | ?
CC(O)c1nc2ccccc2n1C/C=C/c1ccccc1 (stereo not drawn) | -2% | 6% | ? | 5% | 12% | 2% | 2.3% | -22%
Cc1ccc(C(=O)CSc2nc(C)cc(=O)[nH]2)cc1 | -13% | 7% | 9% | -2% | 4% | -3% | 2.2% | 10%
COC(=O)c1cccc(C23CC4(C2)[C@H](CN(Cc2cccnc2)[C@@H]4c2ccccc2)C3c2ccc(Cl)nc2)c1 (stereo partly drawn) | -3% | -1% | 7% | 3% | / | / | 0.2% | 0%
O=c1[nH]ncc2c3ccccc3n(Cc3cccc(Cl)c3)c12 | -2% | / | / | 3% | / | -1%[46.1 µM] | / | -28%
Cc1ccc(C)c(NC(=O)c2cnc(N3CCCC3)nc2C)c1 | / | -1% | / | / | ? | / | 0.9% | -13%
O=C1c2cccc3c(O)ccc(c23)C(=O)N1Cc1ccco1 | -1% | / | 8% | 3% | / | / | / | 0%
O=C(NCC1CCN(Cc2ccccc2F)CC1)Nc1ccc(F)c(Cl)c1 | / | -8% | / | / | -27%[46.1 µM] | ? | -2.6% | -27%
CCC(C(=O)Nc1cccnc1)c1ccccc1 (stereo not drawn) | 6% | / | -6% | 2% | / | / | / | -3%
O=C(O)c1cccc(Nc2ncnc3ccccc23)c1 | 0% | -1% | 2% | 0% | 0% | 8% | -5.6% | /
CN(CCC#N)C(=O)COC(=O)/C=C/c1cccs1 | 0% | / | 9% | -5% | -4% | 26%[46.1 µM] | / | -3%
CC(=O)C1=C(O)C(=O)N(CCc2c[nH]c3ccccc23)C1c1cccc(O)c1 (stereo not drawn) | 8% | -16% | -1% | -10% | 4% | 12% | -1.3% | -2%
CCn1ncc(/C=C/C(=O)NCc2cn(C)nc2C)c1C | 2% | -1% | -15% | 19% | 10% | 8% | 4.7% | 6%
Cc1ccc(S(=O)(=O)N2CCOC2CNC(=O)C(=O)NCc2ccc3c(c2)OCO3)cc1 (stereo not drawn) | 6% | / | 14% | 4% | ? | 7%[46.1 µM] | / | -18%
O=S(=O)(NCCc1csc(-c2cccnc2)n1)c1cc(F)ccc1F | -8% | / | -66% | 3% | -17% | 8% | / | 40%[activator]
O=[N+]([O-])c1cccc(-c2ccc(CN3CCCCC3)o2)c1 | 1% | / | 2% | 2% | 11% | ? | / | 9%
CCOCC(=O)N1CCC(Cc2ccccc2)CC1 | 0% | / | -3% | 19% | -1% | 6%[46.1 µM] | / | -13%
CCCCC[C@H]1CN(Cc2ccccc2)C(=O)[C@@H]1CC(=O)NCc1ccc(OC)cc1 | -2% | / | -32% | 3% | / | / | / | -25%
Cc1cccc(OCC(=O)NCCc2nc3ccccc3[nH]2)c1C | / | 3% | / | / | 1%[46.1 µM] | -1%[46.1 µM] | 4µM* | -29%
CC1CCCN(C(=O)C(=O)Nc2ccc3nc4n(c(=O)c3c2)CCCCC4)C1 (stereo not drawn) | 3% | / | -5% | -8% | / | / | / | 0%
CCOC(=O)c1ccc(NC(=O)N2CC3CC(C2)c2cccc(=O)n2C3)cc1 (stereo not drawn) | 4% | / | -7% | 35% | 0% | 0% | / | -6%
CCc1cccc(-n2nnc(-c3nc(-c4cccs4)no3)c2N)c1 | / | -2% | / | / | 0%[46.1 µM] | / | -0.4% | 42%[activator]
Cc1ccc(OCC(=O)N2CCc3ccccc3C2)cc1 | -1% | / | -4% | -16% | / | / | / | 32%[activator]
CCOC(=O)C1CCN(C(=O)c2nn(-c3ccc(C)cc3)c(=O)n(C)c2=O)CC1 | / | -3% | / | / | ? | / | -1.4% | -3%
COc1ccc(-c2nn(-c3ccccc3)cc2C(=O)OCC(=O)c2ccc(C)c([N+](=O)[O-])c2)cc1 | 1% | 25µM* | 3% | 1% | 4% | -21% | 2.4% | ?
CC1CCN(c2ccc3nnc(CCC(=O)N4CCN(c5ccccc5F)CC4)n3n2)CC1 | 1% | / | -4% | 25% | / | / | / | -17%
COCCN(C(=O)COC(=O)c1ccc2[nH]c(C)c(C)c2c1)c1c(N)n(Cc2ccccc2)c(=O)[nH]c1=O | -1% | / | / | 7% | ? | 17% | / | -1%
O=S(=O)(c1ccc(Cl)c(S(=O)(=O)N2CCCC2)c1)N1CCCC1 | 0% | / | 4% | 1% | -23% | ? | / | -6%

Whole records, looked up by structure:
CC(=O)C1=C(O)C(=O)N(CCc2c[nH]c3ccccc23)C1c1cccc(O)c1 (stereo not drawn) is listed as SARS PLpro yeast: 8%; Cruzain inh noDet: -16%; NS1 function inh: -1%; RE007 growth inh: -10%; Lassa entry inh: 4%; MARV entry inh: 12%; Cruzain Triton: -1.3%; 2A StopGo: -2%
CCOC(=O)c1ccc(NC(=O)N2CC3CC(C2)c2cccc(=O)n2C3)cc1 (stereo not drawn) is listed as SARS PLpro yeast: 4%; Cruzain inh noDet: /; NS1 function inh: -7%; RE007 growth inh: 35%; Lassa entry inh: 0%; MARV entry inh: 0%; Cruzain Triton: /; 2A StopGo: -6%
Fc1ccccc1N1CCN(C2CCN(Cc3c[nH]c4ccccc34)CC2)CC1 is listed as SARS PLpro yeast: 9%; Cruzain inh noDet: 6%; NS1 function inh: 25µM*; RE007 growth inh: 1%; Lassa entry inh: ?; MARV entry inh: 9.2µM*; Cruzain Triton: 6.8%; 2A StopGo: /

Further structures follow.
Structure | SARS PLpro yeast | Cruzain inh noDet | NS1 function inh | RE007 growth inh | Lassa entry inh | MARV entry inh | Cruzain Triton | 2A StopGo
C/C(=N\Nc1cc(N2CCOCC2)nc(C)n1)c1ccc(F)cc1 | 3% | / | -16% | -23% | ? | 2.8µM* | / | -16%
CCOC(=O)N1CCC(NC(=O)c2ccc3c(c2)N=C(CC)c2cc(C)ccc2S3)CC1 | -26% | / | 20% | 3% | ? | ? | / | ?
CCCCNC(=O)C1CC(c2cccc(F)c2)=NO1 (stereo not drawn) | -1% | / | -7% | 0% | / | / | / | 67%[activator]
CCOc1ccccc1NC(=O)CSc1nc2ccccc2c(=O)n1CC1CCCO1 (stereo not drawn) | -3% | / | -2% | 1% | 6% | ? | / | -4%
Cc1ccc2cccc(NC(=O)C(C)(C)Oc3ccc(Br)cc3)c2n1 | / | -19% | / | / | 6%[46.1 µM] | -2%[46.1 µM] | -1.5% | 0%
